GIV-Gai inh: GIV-Galpha-i interaction inhibition | Galpha-i3/FITC-GIV peptide fluorescence polarization, 90 min; active compounds read low; scaled: aluminum fluoride 0%, vehicle 100% | percent of control (FP), % (test concentration not listed) | 0.42% of 210,000 active;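 active = replicate mean at 85% of control or lower, very high polarization wells dropped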;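 also: lower values mean more displacement of the GIV peptide from Galpha-i3; wells of about 15 µL received 100 nL stock; the first replicate is given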
Target sequence (P08753 whole entry, looked up): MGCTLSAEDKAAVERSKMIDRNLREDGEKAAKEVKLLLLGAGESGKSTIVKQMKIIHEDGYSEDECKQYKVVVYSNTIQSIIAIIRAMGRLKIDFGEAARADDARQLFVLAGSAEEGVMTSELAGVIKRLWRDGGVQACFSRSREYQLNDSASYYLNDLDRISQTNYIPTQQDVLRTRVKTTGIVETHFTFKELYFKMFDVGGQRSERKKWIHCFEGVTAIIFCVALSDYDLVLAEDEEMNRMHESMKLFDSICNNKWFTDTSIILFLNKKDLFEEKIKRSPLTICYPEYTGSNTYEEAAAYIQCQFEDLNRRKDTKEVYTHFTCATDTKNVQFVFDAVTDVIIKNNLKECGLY
* marks the source's active call; other numbers are inactive results.

`CCOC(=O)C1=C(C)NC2=C(C(=O)C(C(=O)OCC)C(c3ccccc3OC)C2)C1c1ccc(C)cc1` (configuration not stated) gave GIV-Gai inh 98.
For O=C(CSc1nc2[nH]ncc2c(=O)n1-c1ccc(Cl)cc1)Nc1ccc(-c2nc3ccccc3o2)cc1 the results were GIV-Gai inh 103.
Screening CCOc1ccc(/C=C2\S/C(=N\S(=O)(=O)c3ccc(C)cc3)NC2=O)cc1 returned GIV-Gai inh 100.
For Nc1nnc(SCC(=O)NCCCCCCNC(=O)CSc2nnc(N)s2)s1 the results were GIV-Gai inh 105.
CCc1nc(CN2C(=O)COc3ccc(S(=O)(=O)NCCC4=CCCCC4)cc32)no1 was read as GIV-Gai inh 102.
For CC1=NN(C(=O)c2ccccc2Br)C(O)(c2ccc(Cl)cc2)C1 (configuration not stated) the results were GIV-Gai inh 115.
For Cc1c(NC(=O)/C=C/C(=O)O)c(=O)n(C)n1-c1ccccc1 the results were GIV-Gai inh 108.
For O=C(CCC(=O)N1CCNCC1)Nc1nc(-c2cc3ccccc3oc2=O)cs1 the results were GIV-Gai inh 108.
Screening CSc1ccc(NC(=O)NC2CCN(c3ccc(F)cc3)C2=O)cc1 (configuration not stated) returned GIV-Gai inh 98.
Cc1ccc(CNS(=O)(=O)c2c(C)[nH]c(C)c2-c2nnc(C3CC3)o2)o1 was read as GIV-Gai inh 104.
`NC(=O)C1CCN(C(=O)c2ccc3c(=O)n(C4CCCCC4)c(SCC(=O)N4CCCC4)nc3c2)CC1` gave GIV-Gai inh 117.
`O=C1C(=O)N(c2nc3ccccc3s2)C(c2ccc3c(c2)OCO3)/C1=C(\O)c1ccccc1` (configuration not stated) gave GIV-Gai inh 104.
CCCCOc1ccc(C2CC(=O)Nc3c2c(C)nn3-c2ccc3nnc(C)n3n2)cc1 (configuration not stated) was read as GIV-Gai inh 105.
For O=C(Cn1nc2c(N3CCOCC3)nccn2c1=O)Nc1ccc(Br)cc1F the results were GIV-Gai inh 96.
`O=C1Nc2ccc(S(=O)(=O)Oc3cccc4ccccc34)c3cccc1c23` gave GIV-Gai inh 113.
Cc1ccc(S(=O)(=O)N2CCC(c3ccncc3)CC2)cc1 was read as GIV-Gai inh 101.
Screening COCC1CCN(C(=O)CCC2CCN(c3cc(NC4CC4)ncn3)CC2)CC1 returned GIV-Gai inh 107.
Cc1nc(-c2ccc(-c3noc(C4CCC4)n3)cc2)cs1 was read as GIV-Gai inh 106.
O=C(Nc1ccc(Br)cc1F)c1cc(S(=O)(=O)N2CCN(c3ccccn3)CC2)ccc1F was read as GIV-Gai inh 115.
For CC1CC2(CC(C)(c3csc(N)n3)OC2=O)C(=O)O1 (configuration not stated) the results were GIV-Gai inh 107.
CC(C)OC(=O)Nc1ccc2c(c1)N(C(=O)CCN1CCCCC1)c1ccccc1CC2 was read as GIV-Gai inh 107.
Screening CN(CCc1noc(-c2ccc(C(=O)N3CCCC3)cc2)n1)C(=O)Nc1ccc2c(c1)OCCO2 returned GIV-Gai inh 108.
Cc1ccc(C(=O)Cn2c(=O)n3nc(-c4cccc(C)c4)nc3c3ccccc32)cc1 was read as GIV-Gai inh 102.
Screening N#CC1=C(SCC(=O)Nc2ccc3ccccc3c2)NC(=O)CC1c1cccs1 (configuration not stated) returned GIV-Gai inh 102.
For CS(=O)(=O)Nc1ccc(C2(C(=O)NCc3ccco3)CCC2)cc1 the results were GIV-Gai inh 102.
For CCOC(=O)C1=C(CSc2nc(CC)c(C)cc2C#N)OC(N)=C(C#N)C1c1ccccc1Cl (configuration not stated) the results were GIV-Gai inh 109.
`Cc1ccc(Cl)cc1N1C(=O)C(N2C(=O)c3ccc([N+](=O)[O-])cc3C2=O)C1c1cccc(F)c1` (configuration not stated) gave GIV-Gai inh 114.
For COc1ccc(NC(=O)NC2CCN(c3ccc(F)cc3)C2=O)cc1OC (configuration not stated) the results were GIV-Gai inh 96.
O=C1/C(=C/c2c(NCCCn3ccnc3)nc3ccccn3c2=O)SC(=S)N1CC1CCCO1 (configuration not stated) was read as GIV-Gai inh 260.
CC(C)(C)c1cc2oc3c(c2cc1OC(=O)c1cccc(Cl)c1)CCCC3 was read as GIV-Gai inh 102.
CCOC(=O)C1=C(C)NC2=C(C(=O)C(C(=O)OCC)C(c3ccccc3OC)C2)C1c1ccc(OC)cc1 (configuration not stated) was read as GIV-Gai inh 102.
For CCCCNC(=O)c1cc(-c2ccccn2)nc2ccc(S(=O)(=O)N3CCOCC3)cc12 the results were GIV-Gai inh 102.
For Fc1ccccc1C1N(Cc2ccccc2)CCN1Cc1ccccc1 the results were GIV-Gai inh 109.
Screening O=C1C2C(c3ccc(Br)cc3)OC3(C(=O)c4ccccc4C3=O)C2C(=O)N1c1ccccc1C(F)(F)F (configuration not stated) returned GIV-Gai inh 107.
CC(=NCc1cccs1)c1c(C(F)(F)F)[nH]n(-c2nc3ccccc3s2)c1=O was read as GIV-Gai inh 103.
CCOC(=O)C1=C(CCl)OC(N)=C(C#N)C1c1ccccc1Br (configuration not stated) was read as GIV-Gai inh 110.
`COc1cc(C2C(N3C(=O)c4ccccc4C3=O)C(=O)N2c2ccc(Br)cc2)cc(OC)c1OC` (configuration not stated) gave GIV-Gai inh 108.
`COC(=O)c1cnn(-c2ccc(C(=O)Nc3ccc4c(c3)CN(Cc3ccccc3)C4)cc2)c1N` gave GIV-Gai inh 110.
Screening COc1ccccc1Oc1cc(-c2cccc(C(=O)Nc3cc(C)cc(C)c3)c2)ncn1 returned GIV-Gai inh 112.
For Cc1ccc(CNC(=O)C2CCN(c3ncccc3-c3nc(-c4cccc(C)c4)no3)CC2)cc1 the results were GIV-Gai inh 107.
Screening CCOC(=O)c1nnn(-c2nonc2N)c1CN1CCOCC1 returned GIV-Gai inh 109.
For O=C(NCC1CCCO1)N1CCCn2nc(-c3ccc(C(F)(F)F)cc3)cc2C1 (configuration not stated) the results were GIV-Gai inh 100.
C=CCc1c(C)nc(SCc2c(C(=O)OCC)c3cc(O)c(Br)cc3n2C)c(C#N)c1C was read as GIV-Gai inh 106.
`CCN(CC)S(=O)(=O)c1ccc(NC(=O)N2CCCC(C(=O)Nc3ccc(Cl)cc3)C2)s1` (configuration not stated) gave GIV-Gai inh 103.
CCCCc1ccc(C2C3=C(CC(C)(C)CC3=O)NC3=C2C(=O)c2ccccc23)cc1 (configuration not stated) was read as GIV-Gai inh 99.
`Cc1c(N2C(=O)C(C)SC23C(=O)Nc2ccccc23)c(=O)n(-c2ccccc2)n1C` (configuration not stated) gave GIV-Gai inh 109.
`CCC(Oc1ccc(=O)n(-c2cc(Cl)ccc2C)n1)C(=O)NCc1cc(OC)ccc1OC` (configuration not stated) gave GIV-Gai inh 103.
Screening CCC(C)NS(=O)(=O)c1ccc2c(c1)N(Cc1noc(C3CCC3)n1)C(=O)CO2 (configuration not stated) returned GIV-Gai inh 99.
COc1ccc(OC)c(NC(=O)Nc2ccc(-c3nc4ccccc4s3)cc2)c1 was read as GIV-Gai inh 95.
`COc1cc(C2C(N3C(=O)c4ccccc4C3=O)C(=O)N2c2ccc(C)c(C)c2)cc(OC)c1OC` (configuration not stated) gave GIV-Gai inh 108.
Screening Cc1ccc(-c2nnc(NC(=O)CN3CCN(S(=O)(=O)c4ccc(C)cc4C)CC3)s2)cc1 returned GIV-Gai inh 101.
Screening O=C(CN1C(=O)C2C3c4ccccc4C(c4ccccc43)C2C1=O)Nc1ccc(O)cc1 (configuration not stated) returned GIV-Gai inh 108.
Screening CCCCCn1c(SCC(=O)NCc2ccccc2Cl)nc2cc(C(=O)NCc3ccco3)ccc2c1=O returned GIV-Gai inh 107.
For CC(C)c1ccc(NC(=O)CSc2nc(=O)n(Cc3ccncc3)c3c2CCC3)cc1 the results were GIV-Gai inh 100.
`CCOC(=O)CSc1nc2c(sc(=S)n2Cc2ccco2)c(=O)n1-c1ccccc1` gave GIV-Gai inh 107.
`O=C(NCc1ccnc(N2CCSCC2)c1)Nc1ccc(Br)cc1` gave GIV-Gai inh 99.
For COc1cccc(C2Nc3ccc(C)cc3[C@H]3OCC[C@@H]23)c1 (some centres not stated) the results were GIV-Gai inh 102.
For O=C(NCc1cccnc1)c1nc(-n2cnnc2)ccc1Br the results were GIV-Gai inh 105.
For O=C(c1ccc[nH]c1=S)N1CCN(c2ccccc2Cl)CC1 the results were GIV-Gai inh 104.
For FC(F)Oc1ccccc1C1CC(c2cccs2)=Nc2ccccc2S1 (configuration not stated) the results were GIV-Gai inh 109.

Next part, starting with the last 2 of the part before.
For O=C(c1ccc[nH]c1=S)N1CCN(c2ccccc2Cl)CC1 the results were GIV-Gai inh 104.
For FC(F)Oc1ccccc1C1CC(c2cccs2)=Nc2ccccc2S1 (configuration not stated) the results were GIV-Gai inh 109.
For COCCNC(=O)c1c[nH]c2ccc(S(=O)(=O)N(CCCN3CCOCC3)Cc3ccco3)cc2c1=O the results were GIV-Gai inh 98.
CC1CCN(S(=O)(=O)c2nn(C)cc2C(=O)NCCN2CCCCC2)CC1 was read as GIV-Gai inh 104.
Screening COc1ccc(-c2nc(-c3ccc(NS(C)(=O)=O)cc3)no2)c(OC)c1 returned GIV-Gai inh 100.
For CCOC(=O)C1=C(O)/C(=C/c2cc(OC)c(OC)c(OC)c2)SC1=Nc1ccccc1 the results were GIV-Gai inh 120.
CCOC(=O)C1CCN(C(=O)Cn2c(=O)c3ccccc3n(CC)c2=O)CC1 was read as GIV-Gai inh 106.
O=C(Cc1c(Sc2ccc(F)cc2)[nH]c2ccccc12)N1CCN(c2ccccn2)CC1 was read as GIV-Gai inh 103.
For CCOc1cc(/C=c2\sc3n(c2=O)C(N)=C(C#N)C(c2ccc(O)c(OCC)c2)C=3C#N)ccc1O (configuration not stated) the results were GIV-Gai inh 115.
`Cc1cc(C)cc(-n2ccc(=O)c(-c3nc(-c4ccc5c(c4)OCO5)no3)n2)c1` gave GIV-Gai inh 102.
O=C(c1cn(-c2cccc(Cl)c2)nn1)N1CCCC1 was read as GIV-Gai inh 103.
For CCOC(=O)c1c(NC(=O)CSc2nnc(CNC(=O)c3ccc(OC)c(OC)c3)n2C)sc2c1CCCC2 the results were GIV-Gai inh 110.
For O=S(=O)(c1ccc(F)cc1)N1CCC2(CC1)NCCN=C2NC1CCCC1 the results were GIV-Gai inh 104.
Screening O=[N+]([O-])c1cc(C(F)(F)F)cc([N+](=O)[O-])c1Sc1nc2ccccc2[nH]1 returned GIV-Gai inh 102.
`Cc1ccccc1Cn1nc2n(Cc3ccc(F)cc3)c(=O)c3nn(C)cc3n2c1=O` gave GIV-Gai inh 103.
O=c1c(S(=O)(=O)N2CCCC2)cccn1Cc1ccccc1F was read as GIV-Gai inh 102.
Screening Cc1cccc(N2CC(O)(c3ccccc3)[N+]3=C2SCCC3)c1 (configuration not stated) returned GIV-Gai inh 97.
`CCOP(=O)(OCC)C(Nc1cccc([N+](=O)[O-])c1)c1ccc(N(C)C)cc1` (configuration not stated) gave GIV-Gai inh 106.
`Cc1cc(C)c(C#N)c(SCc2[nH]nc3c2C(c2ccccc2)C(C#N)=C(N)O3)n1` (configuration not stated) gave GIV-Gai inh 114.
COc1cc(-n2cnc3cc(C(=O)NCC(OC)OC)ccc32)cc(OC)c1OC was read as GIV-Gai inh 118.
Screening O=C(CSCC(=O)Nc1ccc2nc(SCC(=O)N3CCOCC3)sc2c1)Nc1ccccc1 returned GIV-Gai inh 109.
`Cn1c(=O)n(Cc2cccc(Cl)c2)c(=O)c2cnc(-c3cccnc3)nc21` gave GIV-Gai inh 102.
O=C(C1CCN(S(=O)(=O)c2ccc(-c3noc(-c4ccsc4)n3)cc2)CC1)N1CCCC1 was read as GIV-Gai inh 106.
Screening COc1ccc(CCNS(=O)(=O)c2cc(C(=O)Nc3ccc(Br)cc3)ccc2F)cc1OC returned GIV-Gai inh 101.
For CCOC(=O)C1=C(C)NC2=C(C(=O)c3ccccc32)C1c1ccc(O)cc1 (configuration not stated) the results were GIV-Gai inh 118.
`CCN(CC)C(=O)c1sc2ncnc(N3CCN(c4ccccc4F)CC3)c2c1C` gave GIV-Gai inh 105.
Screening O=S(=O)(c1cn(Cc2noc(-c3cccc(Br)c3)n2)cn1)N1CCCCC1 returned GIV-Gai inh 103.

Molecules from the list above containing a Cl atom:
For O=C(CSc1nc2[nH]ncc2c(=O)n1-c1ccc(Cl)cc1)Nc1ccc(-c2nc3ccccc3o2)cc1 the results were GIV-Gai inh 103.
For CC1=NN(C(=O)c2ccccc2Br)C(O)(c2ccc(Cl)cc2)C1 (configuration not stated) the results were GIV-Gai inh 115.
For CCOC(=O)C1=C(CSc2nc(CC)c(C)cc2C#N)OC(N)=C(C#N)C1c1ccccc1Cl (configuration not stated) the results were GIV-Gai inh 109.
`Cc1ccc(Cl)cc1N1C(=O)C(N2C(=O)c3ccc([N+](=O)[O-])cc3C2=O)C1c1cccc(F)c1` (configuration not stated) gave GIV-Gai inh 114.
CC(C)(C)c1cc2oc3c(c2cc1OC(=O)c1cccc(Cl)c1)CCCC3 was read as GIV-Gai inh 102.
CCOC(=O)C1=C(CCl)OC(N)=C(C#N)C1c1ccccc1Br (configuration not stated) was read as GIV-Gai inh 110.
`CCN(CC)S(=O)(=O)c1ccc(NC(=O)N2CCCC(C(=O)Nc3ccc(Cl)cc3)C2)s1` (configuration not stated) gave GIV-Gai inh 103.
`CCC(Oc1ccc(=O)n(-c2cc(Cl)ccc2C)n1)C(=O)NCc1cc(OC)ccc1OC` (configuration not stated) gave GIV-Gai inh 103.
Screening CCCCCn1c(SCC(=O)NCc2ccccc2Cl)nc2cc(C(=O)NCc3ccco3)ccc2c1=O returned GIV-Gai inh 107.
For O=C(c1ccc[nH]c1=S)N1CCN(c2ccccc2Cl)CC1 the results were GIV-Gai inh 104.
O=C(c1cn(-c2cccc(Cl)c2)nn1)N1CCCC1 was read as GIV-Gai inh 103.
`Cn1c(=O)n(Cc2cccc(Cl)c2)c(=O)c2cnc(-c3cccnc3)nc21` gave GIV-Gai inh 102.

Some of the compounds tested, so the mix of outcomes need not match the whole.
